# CBX7 AlphaScr = CBX7 inhibition, primary AlphaScreen; 66,000 compounds, 1.1% hits; O95931; normalised signal (fraction of DMSO) (concentration not given with the values); AlphaScreen His6-CBX7 / biotin-H3K27me3 peptide binding; active compounds read low; in the data active means normalised signal below about 0.5;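 further: 100 nL library stock added to about 20 µL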
# Target sequence (O95931 whole entry, looked up): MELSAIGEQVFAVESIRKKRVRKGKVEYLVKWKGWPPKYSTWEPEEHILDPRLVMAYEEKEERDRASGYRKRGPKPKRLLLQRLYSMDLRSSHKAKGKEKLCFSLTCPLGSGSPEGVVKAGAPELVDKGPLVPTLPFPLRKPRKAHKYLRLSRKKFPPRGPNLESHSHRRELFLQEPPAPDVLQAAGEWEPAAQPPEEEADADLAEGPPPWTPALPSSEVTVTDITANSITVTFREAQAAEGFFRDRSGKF
# CBX7 AlphaScr z-score = second read-out of CBX7 AlphaScr, no call of its own (marks repeat the call); z-score; measured here: z-score of CBX7 signal; some inactives read as strong as hits; reference of the scale not given here;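 same signal on another scale; lower means less binding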
# Numbers without * were called inactive; & = joins results of further samples. These rows are one share of the data, so the mix of outcomes need not match the whole.
SMILES,CBX7 AlphaScr,CBX7 AlphaScr z-score
CC(C)CCNC(=O)C(C)N1C(=O)CC(C)(C)Sc2ccccc21 (stereo not drawn),1.07,2.18
COc1ccc(CN2CCN(Cc3cc(OC)c(OC)c(OC)c3)CC2)cc1OC,0.987,-0.315
Cc1ccc(CCNC(=O)C2CCN(S(=O)(=O)c3cccc4cccnc34)CC2)cc1,0.99,-0.129
Cc1cc(C)cc(NC(=O)CSc2nnc(CNC(=O)c3ccccc3F)o2)c1,1.01,0.237
O=C(O)C1CCN(C(=O)c2ccccc2C(=O)N2CCC(C(=O)O)CC2)CC1,1.06,1.63
Cc1ccc(CNc2ccc3c(c2)ncn3C(C)(C)C)cc1,0.408*,-17*
Cc1ccc(-c2noc(CN3CCC(C(N)=O)CC3)n2)cc1,1.07,1.97
Cc1cc(C)c2oc(-c3ccc(N)cc3)nc2c1,0.921,-1.34
O=C(c1ccc2nc(N3CCOCC3)sc2c1)N1CCCC1,1.05,1.87
O=C(COc1ccc(Br)cc1)Nc1ncc(Cc2cccc(Cl)c2)s1,0.953,-1.27
Cc1cccc(Cl)c1OCCCc1c(C)n[nH]c1C,1.01,0.246
O=C(c1ccc2nc(N3CCOCC3)sc2c1)N1CCN(C2CCCCC2)CC1,1.08,0.206
CCOc1ccc(NC(=O)N2CCC(N(C)C(C)C)CC2)cc1,0.862,-1.49
Cc1ccc(C)c(NC(=O)CN(C)S(=O)(=O)c2ccc3nc(C)sc3c2)c1,1.2,1.16
Cc1ccc(-c2[nH]c(-c3ccc(F)cc3)nc2SCC(=O)Nc2nccs2)cc1,0.927,-1.25
COc1ccc(C(=O)NCCc2c[nH]c3ccccc23)cc1,1.01,0.0531
Cc1ccc2c(c1)-c1c(cnn1CC(=O)NCc1cccnc1)CO2,1.01,0.368
COc1cccc(NC(=O)N2CCC(N3CCCCC3)CC2)c1,1.01,0.296
CN(C)C(c1ccc(Cl)cc1Cl)c1nnnn1-c1cccc(Cl)c1 (stereo not drawn),0.81,-3.77
CCN1CCN(c2cc(C)c3cc(NC(=O)CCC(=O)NCCCN4CCOCC4)ccc3n2)CC1,1.01,0.394
O=C(Nc1c2c(nn1-c1ccc(Cl)cc1)CSC2)c1ccccc1F,0.979,-0.511
Cn1c(-c2ccccc2)cn2c3ccccc3nc12,0.894,-1.27
O=C(Nc1ccc2oc(-c3ccccc3F)nc2c1)c1ccc2ccccc2c1,0.999,-0.00734
COc1ccc(NC(=O)COc2nsnc2N2CCCCC2)cc1,1.15,1.08
COc1ccc(N2C(=O)CC(N3CCN(c4cccc(C(F)(F)F)c4)CC3)C2=O)cc1 (stereo not drawn),0.941,-1.39

# 4 entries from above, as labelled records.
canonical_smiles: Cc1cc(C)c2oc(-c3ccc(N)cc3)nc2c1
  CBX7 AlphaScr: 0.921
  CBX7 AlphaScr z-score: -1.34
canonical_smiles: CC(C)CCNC(=O)C(C)N1C(=O)CC(C)(C)Sc2ccccc21 (stereo not drawn)
  CBX7 AlphaScr: 1.07
  CBX7 AlphaScr z-score: 2.18
canonical_smiles: COc1ccc(C(=O)NCCc2c[nH]c3ccccc23)cc1
  CBX7 AlphaScr: 1.01
  CBX7 AlphaScr z-score: 0.0531
canonical_smiles: Cn1c(-c2ccccc2)cn2c3ccccc3nc12
  CBX7 AlphaScr: 0.894
  CBX7 AlphaScr z-score: -1.27

# Additional entries follow.
SMILES,CBX7 AlphaScr,CBX7 AlphaScr z-score
CCC(C)NC(=O)C1CCC(=O)N(c2ccc(OC)cc2)C1c1ccc(OC)c(OC)c1 (stereo not drawn),1.18,2.76
Cc1ccc(C)c(NC(=O)c2ccc3c(c2)N(Cc2ccc(F)cc2)C(=O)CS3)c1,1.06,0.749
COc1ccc(NC(=O)Cn2cc(S(=O)(=O)c3ccccc3)c(=O)c3cc(F)ccc32)c(OC)c1,0.919,-2.63
O=C(NC(C(=O)Nc1cccc(Cl)c1)c1ccc(Cl)cc1)c1ccccc1 (stereo not drawn),1.07,0.911
Cc1ccc2cc(CCNC(=O)c3c(F)cccc3F)c(=O)[nH]c2c1,0.997,-0.139
Nc1nc2ccccc2cc1C(=O)Nc1ccccc1,1.06,2.63
COc1ccc(Cn2c(=O)[nH]c3cc(C(=O)NCc4ccc(C)cc4)ccc3c2=O)cc1,0.993,-0.175
CCCCN(CC)CCCNC(=O)c1cc(-c2ccc(OCC)cc2)nc2ccccc12,1.19,2.01
Cc1c(Cl)cccc1NC(=O)C1CCCN1S(=O)(=O)c1cccc2cccnc12 (stereo not drawn),0.809,-6.42
O=C(NCCN1CCOCC1)c1csc2c1CCCC2,1.01,0.351
Cc1nnc(NC(=O)CSc2nccn2-c2ccc(Cl)cc2)s1,1,0.0373
O=C(NCCCN1CCOCC1)c1ccc2c(=O)n3c(nc2c1)CCCCC3,1.05,1.78
CCOc1ccc2nc(N3CCCC(C(=O)NCc4ccc(OC)cc4)C3)sc2c1 (stereo not drawn),1.02,0.465
CCC(C(=O)Nc1ccccc1OC)n1c(C(=O)OC)cc2ccsc21 (stereo not drawn),1.06,2.35
CC1CCN(c2c(NCc3ccc(C(=O)NCc4cccs4)cc3)c(=O)c2=O)CC1,0.966,-1.39
CCN1C(=O)c2ccccc2Sc2ccc(C(=O)NCCc3ccccc3)cc21,0.819,-3.58
Cc1ccc(NC(=O)c2cnn(-c3ccc(F)cc3)c2C2CCN(C(=O)OC(C)(C)C)CC2)cc1,1.02,0.662
Cc1ccc2nc(NC(=O)C3CCCN(S(=O)(=O)c4cccnc4)C3)sc2c1 (stereo not drawn),0.972,-0.95
Cc1cccc(C(=O)Nc2c(C(=O)N3CCN(C)CC3)cnn2-c2ccccc2)c1,0.999,-0.00543
CC(=O)Nc1c2c(nn1-c1ccccc1C)CS(=O)(=O)C2,0.976,-0.599
Cc1ccc(C)c(N2CC(c3nc4ccccc4n3C)CC2=O)c1 (stereo not drawn),1.09,0.579
COc1ccccc1CNC(=O)c1cc2c(s1)-c1ccccc1OC2,1.5,14.1
O=C(NCc1ccccc1)C1CCN(c2nc3ccc(Br)cc3s2)CC1,0.977,-0.555
Cc1ccc(-c2nc(NC(=O)c3c(-c4ccccc4Cl)noc3C)sc2C)cc1,0.819,-3.85
O=C(NCCc1ccc(Cl)cc1)c1cnn(-c2ccccc2)c1-n1cccc1,1.03,1.33

# A run of entries from the list above:
SMILES,CBX7 AlphaScr,CBX7 AlphaScr z-score
CCC(C)NC(=O)C1CCC(=O)N(c2ccc(OC)cc2)C1c1ccc(OC)c(OC)c1 (stereo not drawn),1.18,2.76
Cc1ccc(C)c(NC(=O)c2ccc3c(c2)N(Cc2ccc(F)cc2)C(=O)CS3)c1,1.06,0.749
COc1ccc(NC(=O)Cn2cc(S(=O)(=O)c3ccccc3)c(=O)c3cc(F)ccc32)c(OC)c1,0.919,-2.63
O=C(NC(C(=O)Nc1cccc(Cl)c1)c1ccc(Cl)cc1)c1ccccc1 (stereo not drawn),1.07,0.911

# (continued)
SMILES,CBX7 AlphaScr,CBX7 AlphaScr z-score
Cc1nc2c(-c3ccc(F)cc3)c(C)nn2c(C)c1CCC(=O)Nc1ccc2c(c1)OCO2,0.854,-4.43
O=C(Nc1ccccn1)c1c(O)c2ccccc2[nH]c1=O,0.936,-0.93
COc1cccc(NC(=O)Cc2c(C(=O)O)[nH]c3ccccc23)c1,0.952,-1.07
COc1ccc(-c2noc(CC3CCCCC3)n2)cc1,1.55,9.49
CC1CCCCC1NC(=O)C1CCN(C(=O)c2cc3sccc3n2Cc2ccc(F)cc2)CC1 (stereo not drawn),1.04,1.43
O=C(NCCc1ccc(Cl)cc1)c1ccc(NC2=NC3CS(=O)(=O)CC3S2)cc1 (stereo not drawn),0.945,-0.419
COCCNC(=O)c1cc(-c2cccc(O)c2)on1,0.988,-0.411
CCOC(=O)c1ccc(NC(=O)CCN2N=C(c3ccccc3)CCC2=O)cc1,0.945,-1.31
Cc1ccc2c(c1)N(CCC(=O)NCCCN1CCCC1=O)C(=O)CO2,1.01,0.169
O=C(NC1CCCC1)C1CCN(C(=O)c2sccc2-n2cccc2)CC1,1.02,0.413
CCCCCOc1ccc(C(=O)Nc2nnc(CC)s2)cc1,1.04,0.972
Cc1ccc(C)c(CN2C(=O)CSc3ccc(C(=O)NCCN4CCOCC4)cc32)c1,1.02,0.754
Cc1ccc(-c2nnc(Nc3cccc(Cl)c3)c3ccccc23)cc1S(=O)(=O)NC(C)(C)C,0.837,-3.06
COc1ccc(-c2nc(CN3CCC(C(=O)NC4CC4)CC3)c(C)o2)cc1,1.07,2.82
O=C(NCc1ccccc1)c1cc(=O)[nH]c2ccc(S(=O)(=O)N3CCCCC3)cc12,1.02,0.316
COc1ccc(-c2ccc(=O)n(CC(=O)Nc3cc(OC)cc(OC)c3)n2)cc1,0.991,-0.119
CC(=O)OCc1cnc(C)c2oc(=O)c(C(N)=O)cc12,1.17,1.12
Cc1nc(C)c(C(=O)c2coc3ccc(O)c(CN(C)C)c23)o1,1.01,0.187
COc1cccc(-c2nc(C(=O)NCCC(C)C)c(C)o2)c1,0.968,-0.606
Clc1ccc(Oc2nc(-c3ccccc3)c3cc(Cl)ccc3n2)cc1,1.31,5.17
COc1ccccc1C(=O)Nc1cccc(-c2nc3ccccc3s2)c1,1.06,0.598
CCOc1ccccc1CNC(=O)C1CCN(c2nn3c(=O)cc(C)nc3s2)CC1,1.18,1.66
Cc1cccc(Cc2c(C)nc3c(C(=O)N(C)Cc4ccccc4)c[nH]n3c2=O)c1,1.17,1.67
Clc1ccccc1-c1nc(N2CCOCC2)c2ccccc2n1,0.977,-0.0815
O=C(NCCCN1CCCCCC1)c1cc(=O)[nH]c2ccc(S(=O)(=O)N3CCCC3)cc12,1.03,1.22
SMILES,CBX7 AlphaScr,CBX7 AlphaScr z-score
CCOC(=O)c1c(C)n(-c2ccc(C)cc2)c2ccc(OCC(O)Cn3cnc4ccccc43)cc12 (stereo not drawn),0.641,-7.37
COCCCNC(=O)CC1Oc2ccccc2NC1=O (stereo not drawn),0.987,-0.63
O=C(CN1C(=O)CSc2ncccc21)NCc1cccnc1,1.08,0.204
O=C(CN1C(=O)CSc2ccccc21)NCCCN1CCCCC1,0.946,-1.63
COc1ccc(Nc2nc3nonc3nc2Nc2ccc(OC)cc2OC)c(OC)c1,0.928,-1.1
O=C1CC(c2cn(Cc3ccccc3)c3ccccc23)C(=O)N1c1ccc(Br)cc1 (stereo not drawn),1.01,0.115
Brc1ccc(CNc2ccc3c(c2)ncn3-c2ccccc2)cc1,0.24*,-4.77*
CCc1ccc(NC(=O)N(C(C)C)C2CCN(C(C)=O)CC2)cc1,1.12,0.123
CC(C)(C)c1ccc(CN2C3=NC(=O)CN3c3ccccc32)cc1,0.857,-1.52
O=C(NCc1ccc2c(c1)OCO2)C1CCCN(S(=O)(=O)c2ccc(Br)s2)C1 (stereo not drawn),1.04,0.363
COCCCNC(=O)C1CCN(C(=O)c2cc3sccc3n2Cc2ccc(Cl)cc2)CC1,0.999,-0.0256
c1ccc(OCCN(Cc2nc3ccccc3[nH]2)C2CCCCC2)cc1,1.04&0.916,0.368&-1.8
COc1ccc(-c2nc(-c3cccc(F)c3)[nH]c2-c2ccc(OC)cc2)cc1,0.575,-5.07
Fc1ccc(-c2nc3nonc3nc2-c2ccccc2)cc1,0.621,-4.36
O=C(NCc1ccc(F)cc1)C(Cc1ccccc1)NS(=O)(=O)c1cccs1 (stereo not drawn),1.03,1.07
CCOC(=O)c1cnc2ccc(OCC)cc2c1Nc1ccc2c(c1)OCO2,0.422*,-0.65*
O=C(Nc1c(C(=O)Nc2cccc(F)c2)oc2ccccc12)c1ccccc1,1.01,0.118
CCCC(=O)Nc1cc(-c2nc3ccc(C)cc3o2)ccc1Cl,0.959,-1.1
CC(C)=C1C2C=CC1C1C(=O)N(c3ccc4c(c3)OCO4)C(=O)C21 (stereo not drawn),1.06,1.44
Cc1cccc(NC(=O)Nc2ccc3c(c2)N(C)C(=O)CS3)n1,1,0.00405
COc1ccc(C(=O)Nc2nnc(C3CCCCC3)s2)cc1OC,1.08,0.735
COC(=O)c1ccccc1NC(=O)COc1ccccc1C(C)C,0.992,-0.0178
Cc1oc(-c2ccccc2)nc1C(=O)NCc1ccc(Cl)cc1,1.02,0.915
COc1cc(-c2nc3sc4c(c3c(=O)[nH]2)CCCC4)ccc1OCc1ccc(F)cc1,1.02,0.562
CCc1ccc2nc(N3CCC(C(=O)NCc4ccccc4Cl)CC3)sc2c1,1.08,0.169
SMILES,CBX7 AlphaScr,CBX7 AlphaScr z-score
COc1ccc(NC(=O)c2cnn(-c3ccc(F)cc3)c2C2CCN(C(=O)OC(C)(C)C)CC2)cc1,0.944,-1.52
O=C(Cn1c2ccccc2n2cc(-c3ccccc3)cc12)N1CCCC1,0.96,-1.19
CCOC(=O)c1cnc2c(C)cccc2c1NCCCN1CCOCC1,0.954,-1.49
COc1ccc(NC(=O)CCc2c(C)nc3c(-c4ccccc4)c(C)nn3c2C)cc1,1.05,1.16
CC(CC(=O)NCCc1ccccc1)CC1=NS(=O)(=O)c2ccccc2N1 (stereo not drawn),1.12,1.25
CCOCCCNC(=O)CS(=O)(=O)Cc1nc(-c2cccc(OC)c2)oc1C,1.01,0.405
CCCCc1ccc(-c2ccc(C)cc2O)nc1,1.1,1.3
O=C(NCCCN1CCCCC1)c1cc(-c2cccnc2)nc2ccccc12,1.07,1.24
Cc1noc(C)c1S(=O)(=O)NCc1cccnc1,0.989,-0.558
COCCCNC(=O)C1CCN(Cc2nc(-c3cccc(Br)c3)oc2C)CC1,0.949,-1.05
COc1ccc(-n2ncc3c(Nc4cccc(OC)c4)ncnc32)cc1,0.963,-0.131
CCOCCCNC(=O)Cn1nc(Cc2ccncc2)c2ccccc2c1=O,0.975,-0.584
CC1CCC(NC(=O)c2ccc3nc(N4CCOCC4)sc3c2)CC1 (stereo not drawn),1.08,3.2
O=S(=O)(c1ccc2nc(-c3ccccc3)[nH]c2c1)N1CCN(c2ccc(Cl)cc2)CC1,0.953,-0.0614
O=C(NCCc1ccc(Cl)cc1)c1cnn2c(C(F)(F)F)cc(-c3ccccc3)nc12,1.05,2.35
